# D2 potentiator: Beta-Arrestin HTS for Positive Allosteric Modulators of the Human D2 Dopamine Receptor: Potentiators | D(2) dopamine receptor (Homo sapiens), P14416 | DiscoveRx D2 beta-arrestin cells, luminescence, 90 min; 100% = 57 uM dopamine signal | potentiation, % (test concentration not listed) | 360,000 compounds, 0.23% hits; active = potentiation of 50% or more; inconclusive = 30% to 50%; inactive = 30% or less;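 further: compound concentration not given in the record; tested on top of an EC20 dose of dopamine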
# Target sequence (P14416 whole entry, looked up): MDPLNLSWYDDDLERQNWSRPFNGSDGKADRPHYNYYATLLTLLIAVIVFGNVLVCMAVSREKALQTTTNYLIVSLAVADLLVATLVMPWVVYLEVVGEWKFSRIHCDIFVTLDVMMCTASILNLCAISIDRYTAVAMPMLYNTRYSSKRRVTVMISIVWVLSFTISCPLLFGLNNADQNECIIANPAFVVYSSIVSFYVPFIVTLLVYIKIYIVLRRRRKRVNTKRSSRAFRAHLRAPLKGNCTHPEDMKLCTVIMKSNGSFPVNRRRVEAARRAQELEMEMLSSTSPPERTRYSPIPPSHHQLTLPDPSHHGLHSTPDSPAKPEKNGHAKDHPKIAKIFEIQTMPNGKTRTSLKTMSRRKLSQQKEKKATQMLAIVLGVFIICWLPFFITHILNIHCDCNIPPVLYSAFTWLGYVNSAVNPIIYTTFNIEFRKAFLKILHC
#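 PathHunter beta-arrestin assay in DiscoveRx D2 cells. Compounds were added with an EC20 of dopamine (50 nM final) for 90 min at 37 deg C. Luminescence was read 1 h after detection reagent, with 57 uM dopamine as the EC100 control.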
# CtBP-E1A inh: qHTS Assay for Inhibitors of the CtBP/E1A Interaction; 340,000 compounds, 0.49% hits; AlphaScreen GST-E1A/His-CtBP binding, 1536-well; stronger effect = lower value; control for the full effect not named in the record; CtBP / adenovirus E1A interaction (AlphaScreen); activity change, % (concentration not given with the values); in the data active means activity change below about -65%; inconclusive means about -30% to -65%; inactive means above about -30%; further: on the % scale 0 is the no-effect control and ±100 the full control effect
#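 AlphaScreen with 125 nM GST-E1A and 125 nM His-CtBP (5X stocks) in Tris pH 8.0, 300 mM NaCl, BSA, Tween 20, TCEP. Compounds preincubated 2 h at 37 deg C, then glutathione donor/nickel acceptor beads added for 1 h at 37 deg C in dark.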
# TRPV1 PAM: HTS Assay for Compounds that Act as Potentiators of the Vanilloid Receptor 1; 320,000 compounds, 0.02% hits; potentiation, % at 8.33 µM; Transient receptor potential cation channel subfamily V member 1 (Homo sapiens), Q8NER1; AID 540277, 2011; TRPV1-expressing cells, Fluo-8 calcium influx, capsaicin EC20 potentiation; host cell line not named in the record; control for the full effect not named in the record; active means potentiation above 80%; inconclusive means 30% to 80%; inactive means below 30%; further: 0% is about no effect
#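 TRPV1-expressing cells were cultured overnight at 35.5C and loaded with Fluo-8 calcium dye for 40 to 90 min at room temperature. After a 10 s baseline, compound was added and calcium influx was read kinetically for 3 min (ex 480/em 520 nm).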
# TRPML1 agonist: qHTS for Agonists of the Human Mucolipin Transient Receptor Potential 1 (TRPML1); Mucolipin-1 (Homo sapiens), Q9GZU1; TRPML1-expressing cells, Ca2+ dye fluorescence, FDSS; host cell line not named in the record; reference of the full effect not given here; activation, % (concentration not given with the values); 410,000 compounds, 0.12% hits; AID 624414, 2012; in the data active = activation above about 50%; inconclusive = about 30% to 50%; inactive = below about 30%; further: 0% is about no effect; the text of the record puts the active cut at 80%
# Target sequence (Q9GZU1 whole entry, looked up): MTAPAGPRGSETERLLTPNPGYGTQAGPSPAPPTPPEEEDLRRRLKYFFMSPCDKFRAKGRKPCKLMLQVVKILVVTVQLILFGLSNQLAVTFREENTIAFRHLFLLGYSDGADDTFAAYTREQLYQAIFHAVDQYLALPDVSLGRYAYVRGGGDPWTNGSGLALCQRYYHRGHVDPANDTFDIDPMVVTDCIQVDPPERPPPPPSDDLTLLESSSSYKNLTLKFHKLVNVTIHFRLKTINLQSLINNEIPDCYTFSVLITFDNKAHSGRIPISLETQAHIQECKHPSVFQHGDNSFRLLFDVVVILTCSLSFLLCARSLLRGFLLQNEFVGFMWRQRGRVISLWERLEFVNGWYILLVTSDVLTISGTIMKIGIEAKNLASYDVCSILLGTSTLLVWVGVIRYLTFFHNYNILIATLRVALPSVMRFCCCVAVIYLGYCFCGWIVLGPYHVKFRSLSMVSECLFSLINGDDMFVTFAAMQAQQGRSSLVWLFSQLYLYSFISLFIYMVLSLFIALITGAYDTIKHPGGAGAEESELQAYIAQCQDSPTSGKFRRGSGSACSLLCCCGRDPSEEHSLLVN
#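 In this qHTS format, compounds were pin-transferred onto Ca8-dye-loaded TRPML1-DL cells induced with Tet overnight, and intracellular Ca2+ fluorescence was recorded kinetically for 110 s after a 10 s baseline. A subsequent 4uM final 54-4 (EC80) addition followed by a second 110 s read served as the antagonist phase.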
# TRPML1 blocker: qHTS for Inhibitors of the Human Mucolipin Transient Receptor Potential 1 (TRPML1) | Mucolipin-1 (Homo sapiens), Q9GZU1 | TRPML1-inducible cells, Ca2+ dye fluorescence, FDSS; stronger effect = lower value; inhibition of EC80 agonist-evoked calcium signal | activity change, negative = inhibition, % (no concentration beside the values) | 390,000 compounds, 0.02% hits | AID 624415, 2012; in the data active means activity change below about -50%; inconclusive means about -30% to -50%; inactive means above about -30%;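 further: stimulus is agonist 54-4 at its EC80 concentration; on the % scale 0 is the no-effect control and ±100 the full control effect; compound concentration not given in the record; the text of the record puts the active cut at -80%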
#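 TRPML1-DL cells, Tet-induced overnight (~16 h, 37 °C) at 1,500 cells/well, were loaded with Ca8 no-wash dye plus quencher for 45-90 min at room temperature. Compounds were pinned during FDSS kinetic reading; agonist 54-4 at EC80 (4 uM final) then added.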
# Six1-Eya2 inh: qHTS Assay for Inhibitors of the Six1/Eya2 Interaction | Homeobox protein SIX1 (Homo sapiens) + Protein phosphatase EYA2 (Homo sapiens), … | AlphaScreen GST-Six1/His-Eya2 binding, biochemical; stronger effect = lower value; control for the full effect not named in the record | activity change, % (concentration not given with the values) | 360,000 compounds, 0.56% hits; in the data active = activity change below about -65%; inconclusive = about -30% to -65%; inactive = above about -30%; further: on the % scale 0 is the no-effect control and ±100 the full control effect
#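 Homogeneous AlphaScreen proximity assay pairing GST-Six1 with His-tagged Eya2 (added as 5X mix: 250 nM and 500 nM) in 50 mM Tris pH 8.0, 300 mM NaCl, 1 mM TCEP. Glutathione donor and nickel acceptor beads; 1 h, 37 °C, dark.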
# The depositor's hits bear a star; ? = inconclusive; . = no result given.
SMILES,D2 potentiator,CtBP-E1A inh,TRPV1 PAM,TRPML1 agonist,TRPML1 blocker,Six1-Eya2 inh
Cc1cc(S(=O)(=O)NC2CCCCC2)ccc1OCC(=O)N1CCOCC1,-0.6,0.0,-18.7,0.0,-12.4,24.7
Cc1ccsc1C(=O)Nc1ccc(OCc2ccccc2)cc1,-1.7,-13.5,15.2,4.0,1.6,-13.1
COc1cc([N+](=O)[O-])ccc1NC(=O)CN1CCOCC1,-11.3,.,-2.0,0.0,5.7,10.8
COc1cccc(NC(=O)N(CCCN2CCOCC2)C(C)c2cc3cccc(OC)c3o2)c1 (configuration not stated),-22.5,-4.0,1.2,-0.5,5.8,-9.4
CCCOc1ccc(OC(=O)c2ccc(Br)o2)cc1,8.7,80.2,-1.2,-0.1,-21.6,56.1
Cc1ccc(C(C)C)c(OCC(=O)N/N=C/c2cccn2C)c1,-27.4,.,-2.9,1.2,38.1,-4.8
CCOc1cc(C2NN=C(c3ccccc3)S2)ccc1OCc1ccccc1Cl (configuration not stated),-4.2,17.1,-16.7,1.2,8.8,13.5
CC(C)c1ccc(NC(=O)Cn2c(=O)oc3cccnc32)cc1,5.8,-3.2,-17.2,-0.4,-2.6,9.8
CCN(CC)C(=O)c1[nH]cnc1C(=O)NCCCCCNC(=O)OC(C)(C)C,-35.6,-20.3,-9.1,-0.8,9.6,4.2
Cc1ccc(NC(=O)C2CC(O)CN2C(=O)OCc2ccccc2)cc1C (configuration not stated),-7.5,0.5,3.5,-0.6,2.8,-6.5
CC(C)OCCCN1C(=O)c2ccccc2C1C(=O)NC1CCCCC1 (configuration not stated),4.5,6.8,26.1,0.0,-0.9,4.2
O=C(O)c1cc([N+](=O)[O-])ccc1C(=O)Nc1ccccc1,4.6,-8.0,5.5,-0.1,-0.6,3.3
CCOc1cccc(-c2cc(N3CCN(CCO)CC3)n3nccc3n2)c1,-10.9,3.7,.,-0.4,.,7.4
COc1ccc(OC)c(NC(=O)CC(NC(C)=O)c2ccccc2)c1 (configuration not stated),-8.5,0.0,-7.7,0.0,-3.4,-2.6
CN1CCN(C(=S)c2ccc(OCC(=O)Nc3cccc(C(F)(F)F)c3)cc2)CC1,-31.5,-3.8,17.0,-0.8,36.1,-4.7
COc1ccc(OC)c(-c2cc(C(=O)O)c3cc4ccccc4cc3n2)c1,-10.0,-24.3,.,0.9,-9.3,6.8
O=C(N/N=C/c1cccc(Br)c1)c1ccc(Br)cc1,-14.3,5.1,2.0,1.7,16.5,-1.5
Cc1ccc(Cn2c(-c3nonc3N)nc3ccccc32)cc1,-17.4,0.7,5.1,0.5,-6.3,4.9
Cc1ccccc1S(=O)(=O)NC(=O)C1(C)CCN1C(=O)CCc1cccs1 (configuration not stated),3.9,6.7,.,-0.6,.,5.0
CCOC(=O)c1c(-c2ccccc2)nnn1-c1nc(OCC)nc(N2CCCCC2)n1,4.9,-3.5,-17.6,1.2,-7.5,-3.2
c1ccc(C[C@H]2CN=C(Nc3ccccc3)N2CCCC2CCCC2)cc1,-27.0,.,-24.8,-0.2,-3.9,-2.4
COCCNc1nc(NCc2cc(-c3ccc(OC)cc3)no2)c2sccc2n1,-5.3,-9.9,.,-1.1,.,-12.3
O=C1CC(N2CCN(c3ccc(Cl)cc3)CC2)C(=O)N1c1ccccc1 (configuration not stated),5.6,3.5,7.7,-0.1,1.5,1.8
COc1ccc(S(=O)(=O)N2CC3CCCN3c3ccc(C(F)(F)F)cc32)cc1 (configuration not stated),0.1,-12.9,?,80.1*,-7.2,-0.6
NC(=O)c1nsc(C(=O)N(c2cccc(F)c2)C(C(=O)NCC2CCCO2)c2cccs2)c1N (configuration not stated),3.9,7.7,3.2,0.1,-13.9,3.0

# The list goes on:
SMILES,D2 potentiator,CtBP-E1A inh,TRPV1 PAM,TRPML1 agonist,TRPML1 blocker,Six1-Eya2 inh
Cc1cnc(NC(=O)CSc2nnc(CNc3ccc(F)cc3)n2CC2CCCO2)s1 (configuration not stated),8.3,0.3,-2.3,0.5,3.3,2.5
N#C/C(=C\c1ccc[nH]1)Sc1nc2ccccc2s1,-9.0,2.4,-6.4,1.9,16.1,-14.4
CSc1nc2c(c(=O)[nH]c(=O)n2C)n1CCCc1ccccc1,-6.0,-3.1,2.0,0.2,13.1,11.4
CC(C)(C)CC(C)(C)c1ccc(OCC(=O)N/N=C/c2ccc(S(=O)(=O)O)o2)cc1,-2.8,0.6,19.4,-0.4,-2.6,6.0
Cc1ccc(S(=O)(=O)N2CCOCC2)cc1NC(=O)COc1ccc(C(=O)c2ccccc2)cc1,5.6,-16.9,7.4,0.1,13.8,-4.3
O=C(Nc1cccc(S(=O)(=O)NC2=NCCCCC2)c1)c1cc(-c2ccncc2)nc2ccccc12,98.3*,.,-1.0,2.6,-8.4,-0.5
Cc1ccc(CNC(=O)CN2C(=O)CSc3ccc(S(=O)(=O)N4CCCCC4)cc32)cc1,-3.2,-2.1,-7.0,1.8,21.6,0.8
Cc1ccc(C2Nc3ccccc3-c3nc4ccccc4n32)o1 (configuration not stated),-7.2,-18.2,-5.0,0.9,5.5,-15.2
CCOc1ccccc1Oc1nc(-c2ccccc2O)nc2ccccc12,0.5,2.6,-3.2,-0.3,48.5,-0.6
CCOC(=O)C1=C(C)N(C[C@@H]2CC[C@@H](Cc3ccc(-c4ccccc4)cc3)O2)C(=O)NC1c1ccc(C(F)(F)F)cc1 (some centres not stated),.,0.9,.,-0.1,4.3,-13.1
C[C@@H](C(=O)OCC(=O)Nc1cc(S(=O)(=O)N2CCOCC2)ccc1Cl)N1C(=O)C2CCCCC2C1=O (some centres not stated),-0.7,6.5,-10.6,-0.5,14.6,-1.3
CCOC(=O)Cc1csc(NC(=O)COc2cc(C)cc(C)c2)n1,-2.9,9.1,-0.5,0.3,-3.6,-1.4
CCCCCCCCC(=O)N1CCN(c2cc3c(cc2F)c(=O)c(C(=O)O)cn3CC)CC1,-3.6,9.4,-4.9,.,.,12.9
O=C(CN(C(=O)CCC(=O)Nc1nccs1)c1ccc(F)c(Cl)c1)NCC1CCCO1 (configuration not stated),-0.8,2.4,3.1,-0.8,-9.3,-6.9
CCc1nc2ccc(C(=O)N(C)Cc3ccco3)cn2c1N(C)CCCc1ccccc1,-8.5,-25.8,.,-0.4,.,-10.2
O=C(NCCN1CCOCC1)c1cccnc1SCc1ccccc1Cl,-9.1,11.3,25.2,0.4,10.5,8.8
CCOC(=O)N1CCN(C(=O)CS(=O)(=O)c2cn(Cc3ccccc3Cl)c3ccccc23)CC1,-5.2,-11.3,1.9,-0.6,0.4,-2.9
Cc1ccc2nc(Cl)c(/C=N/NC(=O)[C@H]3C[C@@H]3c3ccccc3)cc2c1,-1.2,7.1,-1.9,1.7,0.8,-2.5
COc1ccc(N2C(=O)CC(N(CCc3ccc(OC)c(OC)c3)C(=S)Nc3ccccc3)C2=O)cc1 (configuration not stated),-1.4,-4.1,-11.0,1.7,13.5,7.8
O=C(CNS(=O)(=O)c1ccc2ccccc2c1)NCCc1ccccn1,-10.0,4.5,7.7,-1.3,3.5,-6.2
C/C(CC(=O)Nc1ccc2c(c1)OCO2)=N\NC(=O)OC(C)(C)C,-3.9,1.3,7.4,0.9,2.1,1.6
CCOC(=O)c1c(NC(=O)c2ccc(S(=O)(=O)N(C)CC3CCCO3)cc2)sc2c1CCN(C)C2 (configuration not stated),-14.3,-9.8,0.3,0.7,4.9,-1.9
O=C(Nc1ccc2nc3n(c(=O)c2c1)CCCC3)c1ccccc1[N+](=O)[O-],-6.0,?,10.2,0.0,0.1,?
O=c1oc2ccccc2c2c1SC(C(F)(F)F)C2 (configuration not stated),11.4,15.1,-4.8,-0.9,2.6,9.3
CCC1=Nc2cc(C(=O)O)ccc2Sc2ccccc21,-9.6,-6.8,10.3,-0.2,-15.4,4.0

# Profiles from above. Order of values: D2 potentiator | CtBP-E1A inh | TRPV1 PAM | TRPML1 agonist | TRPML1 blocker | Six1-Eya2 inh
# Results for Cc1cnc(NC(=O)CSc2nnc(CNc3ccc(F)cc3)n2CC2CCCO2)s1 (configuration not stated) = 8.3 | 0.3 | -2.3 | 0.5 | 3.3 | 2.5
# Results for CCCCCCCCC(=O)N1CCN(c2cc3c(cc2F)c(=O)c(C(=O)O)cn3CC)CC1 = -3.6 | 9.4 | -4.9 | . | . | 12.9
# Results for O=C(Nc1cccc(S(=O)(=O)NC2=NCCCCC2)c1)c1cc(-c2ccncc2)nc2ccccc12 = 98.3* | . | -1.0 | 2.6 | -8.4 | -0.5
# Results for Cc1ccc(C2Nc3ccccc3-c3nc4ccccc4n32)o1 (configuration not stated) = -7.2 | -18.2 | -5.0 | 0.9 | 5.5 | -15.2
# Results for CCOC(=O)c1c(NC(=O)c2ccc(S(=O)(=O)N(C)CC3CCCO3)cc2)sc2c1CCN(C)C2 (configuration not stated) = -14.3 | -9.8 | 0.3 | 0.7 | 4.9 | -1.9

# (continued)
SMILES,D2 potentiator,CtBP-E1A inh,TRPV1 PAM,TRPML1 agonist,TRPML1 blocker,Six1-Eya2 inh
COC(=O)c1c(C(=O)OC)n(CCCN)c2ccc(C)cc12,-19.9,-3.6,9.0,0.7,13.0,-2.5
CC(=O)Nc1ccc(CNc2nc3cc(-c4ccsc4)sc3c(=O)n2C)cc1,-5.0,-11.3,.,0.7,.,2.9
O=C(CCNC(=O)c1ccccc1Cl)Nc1nc2ccccc2[nH]1,0.9,14.3,.,0.0,4.8,2.7
O=C(Nc1nccs1)c1ccc2nccnc2c1,-0.2,?,-4.6,-0.9,-3.1,?
O=C(Nc1nnc(Cc2ccc(Cl)cc2)s1)c1cccnc1,-3.3,.,5.6,0.1,14.3,-1.4
O=c1cc(-c2ccccc2)c2c([nH]1)CCCC2,-11.6,7.3,12.7,0.3,13.1,-2.3
Cc1cccc(N2CC(C(=O)Nc3ccc(S(=O)(=O)N4CCCCC4)cc3)CC2=O)c1C (configuration not stated),2.8,-2.6,-8.1,3.2,-13.8,1.1
CCCN(CC(=O)Nc1ccccc1C)C(=O)Cc1c[nH]c2ccccc12,-20.3,2.0,.,0.8,-5.3,-0.5
O=C(c1ccco1)N1CCN(Cc2ccc(F)cc2)CC1,?,4.5,-0.4,3.6,-6.7,-1.6
CC(=O)N1c2ccc(S(=O)(=O)N3CCCC(C(=O)N4CCCC(C)C4)C3)cc2CC1C (configuration not stated),-13.2,-12.6,-32.2,-0.3,-3.3,3.8
COC(=O)c1ccccc1NC(=S)NC(NC(=O)c1ccccc1[N+](=O)[O-])C(Cl)(Cl)Cl (configuration not stated),-14.8,-1.8,10.2,0.2,3.7,-1.4

# Source: PubChem BioAssay (National Center for Advancing Translational Sciences (NCATS))
